Sa RN4220 lethal: S. aureus RN4220 growth inhibition; OD600, 16 h; inhibition, % (test concentration not listed); 330,000 tested, 0.33% active;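 active = z-score of -3 or lower and OD600 up to 0.18 on both plates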;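 also: plate controls were untreated cells for no effect and reference antibiotic for full effect; stock transfer was 100 nL into about 80 µL; one replicate is shown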
PrP 5UTR inh: inhibition of PrP 5' UTR reporter expression; cell-based PrP 5' UTR mRNA reporter, plate reader; 340,000 tested, 0.35% active; inhibition, % (test concentration not listed); AID 488862;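 active = every replicate at 50% or more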;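 also: 0 = median of the neutral control wells; tested in H4 reporter cells; numbers are from one replicate; inactives centre near -14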
Autofluor counter: flagged as autofluorescent in microsphere protease counterscreen; compound autofluorescence counterscreen, microsphere flow cytometry; active compounds read high; fluorescence intensity (no concentration beside the values); 360,000 tested, 3.1% active;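 active = at least 3 SD above the mean of all compounds, about 16000 in these data; inconclusive = too few beads counted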;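 also: 100 nL of 1 mM stock went into each well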
Mtb hypoxia rep: reduces hypoxia-regulated biosensor signal in M. tuberculosis; M. tuberculosis hypoxia-regulated fluorescent reporter, fluorescence; AID 1159583; fluorescence inhibition, % (no concentration beside the values); 300,000 tested, 0.1% active;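 active = 35 to 45% if threefold the growth effect, above 45% if 1.5-fold the growth effect; inactive = the rest, general growth blockers included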;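 also: wells of about 50 µL received 100 nL stock; 0% = vehicle wells and 100% = reference inhibitor wells; whole bacteria with a GFP reporter of the hypoxia response; strong numbers were not always called active; many hits fall short of the cut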
BJeLR lethal: kills HRASV12-expressing BJeLR cells; BJeLR (HRASV12) viability, CellTiter-Glo ATP luminescence, 48 h; reference of the scale not given here; inhibition, % (no concentration beside the values); 300,000 tested, 0.17% active; AID 1554;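 active = replicate mean above 50%; inconclusive = above 50% but judged a plate artefact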;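 also: 50 nL library stock added to about 25 µL; numbers are from one replicate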
Sa ugtP lethal: growth inhibition of S. aureus ugtP deletion strain. growth inhibition, % (concentration not given with the values). 330,000 tested, 0.54% active. S. aureus RN4220 ugtP deletion, OD600 growth, 16 h; some inactives read as strong as hits. AID 1259309;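 active = z-score under -3 and OD600 up to 0.15 on both plates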;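 also: plate controls were untreated wells for no effect and antibiotic for full effect; wells of about 80 µL received 100 nL stock; the first replicate is given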
Mtb hypoxia rep growth: recorded beside Mtb hypoxia rep, whose call it bears; growth inhibition, %; measured here: M. tuberculosis growth (absorbance);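 0% = vehicle and 100% = reference antibiotic; read after six days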
Active calls of the source: *; u = inconclusive; x = no result given; & = joins results of further samples. Outcome played no part in choosing rows; 4% or so of the library scored in one or more.

A first look, two compounds:
SMILES	Sa RN4220 lethal	PrP 5UTR inh	Autofluor counter	Mtb hypoxia rep	Mtb hypoxia rep growth	BJeLR lethal	Sa ugtP lethal
O=C(COC(=O)/C=C/c1ccccc1)NCCC1=CCCCC1	3.5	-2	2567	0	12	6	7
O=C1c2cccc3cccc(c23)C(=O)N1CCc1ccccc1	4.0	-79	4733	7	3	-4	4

Main list, previewed entries included:
SMILES	Sa RN4220 lethal	PrP 5UTR inh	Autofluor counter	Mtb hypoxia rep	Mtb hypoxia rep growth	BJeLR lethal	Sa ugtP lethal
O=C(COC(=O)/C=C/c1ccccc1)NCCC1=CCCCC1	3.5	-2	2567	0	12	6	7
O=C1c2cccc3cccc(c23)C(=O)N1CCc1ccccc1	4.0	-79	4733	7	3	-4	4
COc1ccc(CNC(=O)CN2CCN(C(c3ccccc3)c3ccccc3)CC2)cc1	-1.6	-9	3348	6	15	5	1
Cn1cc([N+](=O)[O-])c(C(=O)NN=Cc2c[nH]c3ccccc23)n1	1.7	x	x	10	6	x	2
O=C(COc1ccccc1F)N/N=C1\CCCc2ccccc21	x	-85	8066	x	x	8	x
O=C(NCCc1ccccc1)c1cccc(S(=O)(=O)N2CCCCC2)c1	2.2	-13	4652	1	-4	-1	10
C=CCOc1ccc(NC(=O)C2CC(=O)N(C(C)C)C2)cc1 (configuration not stated)	5.3	-11	5721	5	-3	2	13
CCCC(C)C(=O)Nc1nc(C)c(-c2csc(Nc3cc(OC)ccc3OC)n2)s1 (configuration not stated)	-25	2	3938	2	13	7	-37
COc1ccc(C(C)NC(=S)NCc2ccc(F)cc2)cc1 (configuration not stated)	-0.4	-13	4430	8	0	-9	4
CC1=C(C(=O)Nc2ccc(F)cc2)C(c2ccncc2)C2=C(CCCC2=O)N1 (configuration not stated)	1.9	-12	7163	-75	-20	-3	5
Cc1cc(C)n2nc(C(=O)N3CCCC(CNS(=O)(=O)c4cccs4)C3)cc2n1 (configuration not stated)	2.7	-14	3205	-5	9	-8	3
COc1cc(CN2CCCC(N3CCN(c4ccc(F)cc4)CC3)C2)ccc1F (configuration not stated)	2.4	-14	4053	2	1	-9	3
CC1Sc2ccc(C(=O)NCc3cccc(C(F)(F)F)c3)cc2NC1=O (configuration not stated)	2.4	x	u	5	2	x	-1
COc1ccc2oc(C(=O)N(C)Cc3ccc(OC(F)F)cc3)c(C)c2c1	4.9	-17	u	16	-2	-10	18
CC(=O)N[C@@H](Cc1c[nH]c2ccccc12)C(=O)NCc1ccccc1	3.3	4	4778	0	-7	-2	13
N#CC1(NC(=O)COC(=O)c2nc(Cl)c(Cl)c(N)c2Cl)CCCCC1	4.4	-17	u	-1	0	1	5
O=C1C(=O)N(C/C=C/c2ccccc2)c2ccccc21	x	-19	3126	x	x	37	x
COc1ccc(-c2noc(CCC(=O)N3CCN(c4ccccc4Cl)CC3)n2)cc1	8.4	-11	3942	-6	-3	x	5
Cc1cc(NC2CCCCC2)nc(NCc2ccccc2)n1	-6.1	-14	2855	x	x	22	-31
CCOC(=O)CN(C(=O)CSc1nnc(CNc2ccc(C)cc2C)n1CC)c1ccccc1	-0.9	-13	9516	9	8	6	5
CC(=O)c1ccc(Oc2ncnc(N)c2[N+](=O)[O-])cc1	1.6	-18	3759	16	7	11	8
CN(C)S(=O)(=O)c1ccc(NC(=O)Cn2ccsc2=N)cc1	4.6	-15	5115	-1	-8	-1	5
COc1ccc(NS(=O)(=O)c2ccc3nc(COc4cccc5ccccc45)[nH]c3c2)cc1	8.9	-20	8947	3	5	6	-11
CCOc1nc(NC(=O)NS(=O)(=O)c2cccc(Cl)c2)nc(-c2ccccc2)n1	3.0	-13	2023	13	7	0	-1
COc1ccc(C2CCCN2CC(O)COc2ccccc2C(C)C)cc1 (configuration not stated)	3.3	-4	4978	-2	5	14	-5
O=C1NCC(O)=C1C=NC12CC3CC(CC(C3)C1)C2	3.5&8.8	-16&-24	8484&8009	4&14	1&10	4&-6	17&5
O=C(O)C1CCCN1c1ncccc1[N+](=O)[O-] (configuration not stated)	2.9	-18	4128	4	4	x	6
Clc1ncccc1-c1nc2ccccc2n1Cc1ccccc1	1.5	8	20310*	7	4	-9	4
COc1ccccc1N1CCN(C(=O)CN2C(=O)c3ccccc3C2=O)CC1	5.4	-7	4986	9	1	-1	1
COc1cc(C=Nn2c(-c3ccccc3)n[nH]c2=S)ccc1O	4.1	x	x	15	11	x	2
O=C(CCc1nnc(-c2ccsc2)o1)NCc1ccccc1OC(F)(F)F	4.1	-41	5235	9	8	-3	3
O=C1OC(=O)C2C3CCC(O3)C12 (configuration not stated)	7.2	x	x	1	1	x	-4
COc1ccc(CN2CCN(C(C)C)C(CCO)C2)cc1Cn1cccn1 (configuration not stated)	6.6	-8	1972	-1	-1	-7	16
Cc1cccc(NC(=O)C2c3ccccc3C(=O)N3CCc4ccccc4C23)n1 (configuration not stated)	6.8	-10	9913	6	7	7	4
CCOC(=O)CN1C(=O)C(O)=C(C(C)=O)C1c1ccc([N+](=O)[O-])cc1 (configuration not stated)	7.4	2	4356	x	x	-6	4
Cc1cc(=O)c2ccccc2s1	4.4	-11	4003	10	6	-5	0
Cc1ccc(NC(=O)CSCC(=O)Nc2ccc(N3CCOCC3)cc2N2CCOCC2)cc1	3.5	-23	6551	5	5	x	7
CC1=C(C(=O)Nc2cccc(C(=O)NC3CCCC(C)C3C)c2)SCCO1 (configuration not stated)	5.5	-12	5428	5	1	-10	3
CCS(=O)(=O)c1ccc(O)c(NC(=O)COc2ccc(OC)cc2)c1	3.9	6	2338	11	1	-11	5
N#CC(C#N)=Cc1ccc(OCC(=O)N2CCOCC2)cc1	x	-27	4380	x	x	5	x
CC1CCN(S(=O)(=O)c2ccc3c(c2)n(C)c(=O)n3C)CC1	-0.6	-4	4404	8	-1	-3	3
COC(=O)C1=C(C)NC(=O)/C1=C\c1cc(C)n(-c2cccc(C)c2)c1C	-15	-11	2249	5	5	-5	-13
CCN([C@H](CO)CC(C)C)S(=O)(=O)c1ccccc1	6.3	2	2915	-4	-2	x	5
CCN(CC)S(=O)(=O)c1ccc(N2CCOCC2)c(NC(=O)COc2ccccc2C)c1	12	-18	3493	18	6	x	2
Cc1nn2c(N)c(-c3ccccc3)cnc2c1-c1ccccc1	6.2	-74	3904	13	11	-20	14
O=C(NCC(=O)N1CCCCCC1)c1ccc(Br)cc1	2.9	-26	4200	1	2	27	6
CC1CC1C(=O)OCC(=O)c1c(N)n(C)c(=O)n(C)c1=O (configuration not stated)	4.9	-8	4044	2	1	4	11
COc1ccc(NC(=O)N2CCN(S(C)(=O)=O)CC2)c(OC)c1	-2.5	-30	3887	-3	5	-5	-10
C/C(=N/NC(=O)OC(C)(C)C)c1ccco1	x	-21	2211	x	x	3	x
O=C(CSc1ncc(-c2ccc(F)cc2)[nH]1)NCc1ccco1	3.4	-52	12637	5	-2	-1	2
COc1cc(CCC(=O)Nc2cccc(S(=O)(=O)N(C)C)c2)cc(OC)c1OC	-0.1	-13	6819	11	7	6	5
Cc1nc2c3ccccc3nc(NNC(=O)CCC(=O)N3CCCC(C)C3)n2n1 (configuration not stated)	-0.6	7	5680	-2	1	3	-3
Cc1ccc(C(=O)c2ccccc2C(=O)OCC(=O)N2CCCC2)cc1	4.1	-22	4046	5	5	x	0
O=C(NNC(=S)Nc1ccc(Cl)cc1Cl)c1cccnc1	3.6	-26	3832	10	-3	x	2
CCOC(=O)N1CCC(N2CCN(S(=O)(=O)c3ccc(Cl)cc3)CC2)CC1	-0.6	-15	19293*	-4	4	-3	-5
CCc1nnc(NC(=O)C2CCCN2S(=O)(=O)c2ccc(C)cc2)s1 (configuration not stated)	-1.6	-8	3711	x	x	-6	11
O=C(CNC(=O)c1cccs1)N/N=C/c1cccc(Br)c1	x	-10	4437	x	x	-14	x
COc1ccc(-c2sc3ccccc3c2C=Cc2ccc(OC)c(OC)c2)cc1	-4.2	x	x	17	10	x	12
Cc1ccc(OCc2nnc(SCC(=O)Nc3cc(C)on3)n2C)cc1	1.3	-6	21396*	3	6	-10	-2
Cc1nc(C)c(C(=O)NNC(=O)Nc2ccc(Cl)cc2)s1	-0.4	-12	3495	-2	12	2	-6

Next results follow.
SMILES	Sa RN4220 lethal	PrP 5UTR inh	Autofluor counter	Mtb hypoxia rep	Mtb hypoxia rep growth	BJeLR lethal	Sa ugtP lethal
O=C(Nc1cccc(S(=O)(=O)NC2=NCCC2)c1)c1ccc(OC(F)F)cc1	-0.3	-76	3666	9	2	x	3
Nn1c(Cc2ccccc2F)nnc1SCn1nnc2ccccc2c1=O	4.0	-8	3703	5	1	-2	-8
CCc1ccc(/C=C2/C(=O)N(C)C(=S)N2CC(=O)OC)s1	x	-12	2664	x	x	5	x
O=C(CCN1C(=O)c2cccc3cccc(c23)C1=O)Nc1ccon1	x	-17	2589	x	x	-3	x
O=C(Nc1ccc(S(=O)(=O)N2CCOCC2)cc1)c1cc([N+](=O)[O-])ccc1Cl	-4.3	3	3940	-13	2	6	7
COc1ccc(CNC(=O)C(=O)NCCCn2ccnc2)cc1	7.6	-11	4158	12	1	-26	4
Cc1cc(C)nc(SCCN2CCOCC2)n1	3.3	-8	2889	3	4	2	4
Cn1c(=O)c2c(nc(Oc3ccccc3)n2C)n(C)c1=O	15	-15	3167	-9	11	-4	2
O=[N+]([O-])c1cccnc1N1CCC(c2cc(-c3ccc(Cl)cc3)n[nH]2)CC1	x	-9	4577	x	x	0	x
O=C(CN1C(=O)NC2(CCCC2)C1=O)Nc1cccc(Cl)c1	4.5	5	5502	-10	3	-2	-2
C/C(=N/NC(=O)c1sc(NS(=O)(=O)c2ccccc2)nc1C)c1ccc(F)cc1	x	-13	1978	x	x	12	x
CCN(CC)c1ccc(C=NNC(=O)c2c(Cl)c(C)nn2C)cc1	2.9	x	x	1	7	x	1
Cc1csc(NC(=O)CSc2nnc(C)n2Cc2ccco2)n1	-7.8	-15	4779	-2	8	10	-6
CC(=O)NNc1nc(-c2ccccc2)cs1	2.8	-32	4568	0	2	-3	7
COc1ccc(C2C(C(=O)N3CCCCC3)CCC(=O)N2c2cc(OC)c(OC)c(OC)c2)cc1 (configuration not stated)	1.9	-10	9596	8	14	-4	3
CN(C)c1ccc(-c2noc(C3CCN(S(=O)(=O)c4cccc(Cl)c4)CC3)n2)cc1	3.5	-20	17481*	1	1	-2	3
COc1cc2c(cc1OC)CN(C(=S)Nc1ccccc1)CC2	-0.3	-6	5245	3	13	5	0
NC(=O)c1ccsc1NC(=O)COC(=O)CCOc1ccccc1	5.7	-16	5292	9	-2	1	4
Cc1nn(CC(=O)N2CCN(Cc3ccccc3)CC2)c(=O)c2ccccc12	-0.7	-7	4749	x	x	6	0
CC(C)N1CC(C(=O)Nc2ccc(S(=O)(=O)N3CCCCC3)cc2)CC1=O (configuration not stated)	7.1	-4	4300	-1	7	2	4
CCOC(=O)CC(=O)CSc1nc2c(cc1C#N)CCCCCC2	-7.6	-17	9959	-3	5	-8	-10
CCOC(=O)N/N=C(/c1ccccc1)C1CCCCC1	x	-12	4921	x	x	-8	x
Cc1cc2n(n1)C(c1ccco1)Nc1ccccc1-2 (configuration not stated)	0.6	-18	10090	16	1	2	2
CC(C)(C)c1csc(NC(=O)c2ccccc2O)n1	15	-48	4037	8	0	6	18
O=C(Nc1ccc(F)cc1)NC1(C(=O)NCc2ccc3c(c2)OCO3)CCCCC1	37	-4	3202	10	8	-3	100*
CCCCn1nnc(N(C(=O)c2cccs2)C(=O)c2cccs2)n1	3.5	-43	4072	-11	-2	4	0
CC(C)(C=NNC(=O)CSCc1ccc(Cl)cc1)CCC#N	-0.5	x	x	-3	7	x	4
COC(=O)c1ccc(NC(=O)Nc2ccc3c(c2)OCO3)cc1	-2.6	-76	5129	0	10	-3	-11
CCN1CCN(c2ccc(S(=O)(=O)N3CCCCC3)cc2NC(=O)c2cccc(Cl)c2)CC1	5.2	-16	u	8	-2	-5	3

Full records from above:
Record of O=C(Nc1ccc(F)cc1)NC1(C(=O)NCc2ccc3c(c2)OCO3)CCCCC1 = Sa RN4220 lethal = 37; PrP 5UTR inh = -4; Autofluor counter = 3202; Mtb hypoxia rep = 10; Mtb hypoxia rep growth = 8; BJeLR lethal = -3; Sa ugtP lethal = 100*
Record of CCCCn1nnc(N(C(=O)c2cccs2)C(=O)c2cccs2)n1 = Sa RN4220 lethal = 3.5; PrP 5UTR inh = -43; Autofluor counter = 4072; Mtb hypoxia rep = -11; Mtb hypoxia rep growth = -2; BJeLR lethal = 4; Sa ugtP lethal = 0
